NPYLR7 ag: agonists of mosquito NPYLR7 receptor, primary screen, cell-based, Aedes aegypti, calcium fluorescence, mosquito biting behavior; AID 1259423, 2018; Aedes aegypti neuropeptide Y-like receptor 7 (NPYLR7); 0.15% of 270,000 active; HEK293T NPYLR7/Galpha15, GCaMP6s calcium fluorescence; activation, % at 10 µM; in the data active = activation above about 40%;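 note: 0% = vehicle and 100% = reference agonist at the receptor; some compounds past the cut are filed as inactive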
NPYLR7 ag max-min: also measured in NPYLR7 ag; calls as there; activation, %; measured here: Max-Min RFU normalised activation; some inactives read as strong as hits;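 span of the calcium signal over five minutes; 0% = vehicle and 100% = native peptide agonist; compound fluorescence can raise it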
The depositor's hits bear a star.

Results follow in this order: NPYLR7 ag	NPYLR7 ag max-min
> CN1CCN2CCN(C(=O)c3ccc(NCc4ccncc4)cc3)CC2C1 (stereo not drawn)
 : -0.8	-0.6
> CC(NC(=O)C1CCCc2ccccc21)c1ccccn1 (stereo not drawn)
 : -0.6	-2.2
> CCOC(=O)c1coc(NS(=O)(=O)c2cc(OC)c(OC)cc2C)n1
 : 6.9	-8.2
> CC(C)(C)c1ccc(C(=O)NCCn2nc(-c3ccc(F)cc3)ccc2=O)cc1
 : -1.4	-1.0
> COc1cc(CC(=O)N2CCC3(CCNC(=O)CC3)CC2)cc(OC)c1
 : 0.9	1.9
> COc1ccc(NC(=O)c2cc(C3CC3)n(C3CCS(=O)(=O)C3)n2)cc1OC (stereo not drawn)
 : 8.3	5.8
> CC(C)(C)CC(C)(C)Nc1c(-c2ccc(OS(=O)(=O)c3cccc(C(F)(F)F)c3)cc2)nc2ccccn12
 : 1.1	11.4
> CC(C)CN(Cc1c(-c2ccccc2)noc1N1CCCC1)C(=O)Cc1ccccc1
 : -1.3	1.7
> CN1C(=O)COCc2cc(-c3ccncc3)ccc21
 : 5.3	3.5
> NC(=O)c1ccc(NC(=O)c2cc(Cl)ccc2F)cc1
 : 3.9	0.7
> CC(C)c1cccc(C(C)C)c1NC(=O)CN1C(=O)c2ccccc2C1=O
 : -8.1	-13.3
> Cc1cc(C)n(CCCC(=O)N2CCC3(CC2)c2ccccc2[C@@H](N)[C@@H]3O)n1
 : -7.5	-12.1
> Cc1ccc(S(=O)(=O)NC(CC(C)C)C(=O)N2CCCC(c3nc(C)no3)C2)cc1 (stereo not drawn)
 : 2.3	0.4
> CCN1CCN(Cc2c(O)ccc3c(=O)c(-c4ccccc4OC)coc23)CC1
 : -3.9	-6.2
> O=c1oc(-c2ccccc2)nc2ccc(Cl)cc12
 : -5.1	-7.8
> Cc1nn(C)cc1CCC(=O)N(CC(F)(F)F)C1CCCC1
 : 0.9	1.0
> O=C1CSC(c2cccs2)N1c1ccccc1 (stereo not drawn)
 : -5.2	-13.1
> Cc1c(Cl)cccc1N1CCNC(C)C1=O (stereo not drawn)
 : -3.0	0.8
> COc1ccc(OC)c(-c2nc(CN(C)C(C)c3nc(C)sc3C)c(C)o2)c1 (stereo not drawn)
 : 7.9	3.5
> Clc1ccc(-c2csc3[n+]2CCS3)cc1
 : 4.6	3.1

Other records.
Results follow in this order: NPYLR7 ag	NPYLR7 ag max-min
> O=C(NC1CC1)c1cc(N2CCN(c3cccc(C(F)(F)F)c3)CC2)nc2ccccc12
 : 4.5	0.8
> C=C1/C(=C/C=C2\CCC[C@]3(C)[C@@H]([C@H](C)/C=C/[C@@H](C)C(C)C)CC[C@@H]23)C[C@@H](O)C[C@@H]1O
 : -0.4	-1.3
> Fc1ccc(C2(CNCc3ccc(C(F)(F)F)nc3)CCOC2)cc1 (stereo not drawn)
 : -14.6	-14.1
> CCN1CCc2c(sc(NC(=O)c3ccco3)c2-c2nc3ccccc3s2)C1
 : 9.0	4.4
> CNS(=O)(=O)c1ccc(C(=O)NNC(=O)c2cccc(S(=O)(=O)N(C)C)c2)cc1
 : 1.2	6.1
> CC(NS(C)(=O)=O)C(=O)NCc1cccnc1N(C)C1CCCCC1 (stereo not drawn)
 : 0.6	-0.6
> CC(C)[C@H](C(=O)Nc1ccc(C(=O)NO)cc1)c1ccccc1
 : -9.0	-14.8
> O=C(c1ccsc1)N1CCc2nc(NCc3cccc(Oc4ccccc4)c3)ncc2C1
 : 1.6	-4.7
> CCCNC(=O)c1cc2ccsc2n1Cc1ccccc1F
 : -5.2	3.4
> COCC(=O)Nc1ccc(N(C)C)c(CN(C(C)=O)C(C)c2ccccc2)c1 (stereo not drawn)
 : -1.7	5.4
> COc1ccc(C(=O)N(CCN2CCCCC2)CC(=O)N(CCc2ccccc2)Cc2ccc(C)o2)cc1
 : 3.0	21.4
> CSc1ccc(C2C(C#N)=C3Sc4ccccc4N3C(=N)C2C#N)cc1 (stereo not drawn)
 : -0.2	-3.7
> COCc1cc(C)nc(OCC(=O)N/N=C\c2ccc3c(c2)OCO3)c1C#N
 : 19.0	-3.8
> CCC(CC)C(=O)N(Cc1cc(NC(=O)COC)ccc1N(C)C)C(C)c1ccccc1 (stereo not drawn)
 : 12.8	10.9
> CCCCC(CC)C(=O)Nc1c(OC(=O)N(CC)CC)ccc2c1ccn2Cc1ccc(F)cc1 (stereo not drawn)
 : 0.8	-0.8
> CC(C)(C)c1ccc(C(=O)Nc2nc3c(s2)C[C@@H]2[C@](C)(CO)[C@H](O)CC[C@@]2(C)[C@@H]3CC(=O)Oc2cccc(N)c2)cc1
 : -6.0	-10.6
> CC(=O)NCCc1cc2c(C)ccc(C)c2[nH]c1=O
 : 0.4	4.4
> COc1ccc(CNC(=O)c2cccnc2N2CCN(C(=O)C3C[C@H]3c3ccccc3)CC2)cc1 (stereo partly drawn)
 : 20.4	26.3
> Cc1cc(C)n2nc(-c3ccccc3)c(C)c2n1
 : -1.2	35.8
> NCC1CCN(c2ccc(OC(F)(F)F)cc2)C1 (stereo not drawn)
 : 8.3	6.3

Other results follow:
Results follow in this order: NPYLR7 ag	NPYLR7 ag max-min
> NC[C@H]1O[C@H](OC2[C@@H](N)C[C@@H](N)[C@H](O)[C@H]2O[C@@H]2O[C@H](CO)[C@@H](O)[C@H]2O)[C@H](N)[C@@H](O)[C@@H]1O (stereo partly drawn)
 : 1.0	-3.0
> COc1ccc(/C=c2\sc3nc(-c4ccncc4)nn3c2=O)cc1
 : -4.3	-6.5
> COc1ccc(CCNC(=O)NCC(c2ccsc2)N2CCOCC2)cc1 (stereo not drawn)
 : -8.8	-9.2
> Cc1ccccc1-c1ccc(-n2cncc2C(=O)N2Cc3ccccc3C2)cc1
 : 3.8	4.6
> COc1ccc(-c2[nH]nc3c2C(c2ccc(OC)c(O)c2)C(C#N)C(=N)O3)cc1 (stereo not drawn)
 : -2.5	-4.7
> CCOC(=O)C1CCN(Cn2nc(Nc3ccc(F)cc3)sc2=S)CC1
 : 9.7	5.2
> CCOC(=O)N1CCC2(CC1)OCc1cc(-c3ccc(OC(F)(F)F)cc3)ccc1O2
 : -3.9	-10.5
> CCCCCCNC(=O)c1cc(-c2ccccc2Cl)nc2cc(-c3ccccc3)nn12
 : 18.5	22.0
> O=C1NCC2(CCN(C(=O)c3scc4c3CCCC4)CC2)O1
 : 17.8	9.1
> CCCn1cc(CN2CCN(C3CCCCC3)C(CCO)C2)c(C)n1 (stereo not drawn)
 : 20.3	8.1
> CC(C)(C)C(=O)NC(=S)NC1=CC2N=C(c3ccncc3)OC2C=C1 (stereo not drawn)
 : 3.5	1.2
> O=c1[nH]c2cc(Cl)c(Br)cc2o1
 : -2.9	-1.0
> COc1ccc(-n2nnc3c(SCc4cccc(Cl)c4)ncnc32)cc1
 : 15.8	14.9
> O=C1Nc2c(c(=O)[nH]c(=O)n2Cc2ccccc2)C1(NS(=O)(=O)c1ccccc1)C(F)(F)F (stereo not drawn)
 : -10.1	-15.8
> Cc1cnn(CC2CCCN2C(C)C(=O)N2CCOCC2)c1 (stereo not drawn)
 : 2.9	0.6
> O=C1CCc2cc(-c3csc(N4CCCC4)n3)c(F)cc2N1
 : 1.9	0.3
> Cc1sc(NC(=O)NCC(CC(C)C)N(C)C)c(C#N)c1C (stereo not drawn)
 : -14.5	-14.8
> O=C1CCC(C(=O)N2CCc3[nH]nc(-c4cccc5ccccc45)c3C2)CN1 (stereo not drawn)
 : 27.6	22.9
> CN(Cc1ccc(C(C)(C)C)cc1)C(=O)c1ccc(C(N)=O)cc1
 : 0.9	0.2
> O=C(C1CCCC1)N1CCC(c2cn(Cc3ccc(C(F)(F)F)cc3)c3ccccc23)CC1
 : 6.3	3.6

One compound at a time (already shown). Order of screens: NPYLR7 ag	NPYLR7 ag max-min
Results for COc1cc(CC(=O)N2CCC3(CCNC(=O)CC3)CC2)cc(OC)c1 → 0.9	1.9
Results for CC(C)[C@H](C(=O)Nc1ccc(C(=O)NO)cc1)c1ccccc1 → -9.0	-14.8
Results for CC(C)(C)CC(C)(C)Nc1c(-c2ccc(OS(=O)(=O)c3cccc(C(F)(F)F)c3)cc2)nc2ccccn12 → 1.1	11.4
Results for CCCn1cc(CN2CCN(C3CCCCC3)C(CCO)C2)c(C)n1 (stereo not drawn) → 20.3	8.1

More structures follow:
Results follow in this order: NPYLR7 ag	NPYLR7 ag max-min
> CC(=O)Nc1ccc(S(=O)(=O)N2CCC(c3cn(Cc4ccc(C(F)(F)F)cc4)c4ccccc34)CC2)cc1
 : 18.0	8.6
> CCNC(=O)OC1CCN(C(=O)c2ccccc2OCC)CC(=O)N(C)c2ccccc21 (stereo not drawn)
 : 3.5	15.3
> Cc1nonc1CC(=O)NC1CC(=O)N(CC2CCCCC2)C1 (stereo not drawn)
 : 8.5	6.6
> O=C1CCN(C(=O)c2coc(COc3cccc(F)c3)n2)CCN1
 : 4.4	1.8
> O=C(NC1CCN(c2ccccc2C(=O)NCc2ccc3c(c2)OCO3)CC1)c1ccccc1F
 : -0.1	-3.1
> CN(CCN1CCCC1)C(=O)/C=C/c1ccnc2ccccc12
 : 2.0	0.5
> C=C(C)CN(CC)C(=O)CN1C(=O)NC(C)(c2cc(F)ccc2F)C1=O (stereo not drawn)
 : 6.2	-1.4
> O=S(=O)(c1ccccc1)N1CN(c2ccc(N3CCOCC3)cc2)c2nc3ccccc3nc21
 : -1.0	-6.6
> O=C(NC1CC1)c1cc2n(n1)CCCN(C(=O)c1cnn3ccccc13)C2
 : 1.7	1.7
> CC1c2ccccc2N(S(=O)(=O)c2ccc3c(c2)OCCCO3)C2CNC(=O)C12 (stereo not drawn)
 : 7.8	2.4
> CC(=O)Nc1c(-c2cc(=O)oc3cc(C)c(Cl)cc23)oc2ccccc12
 : -2.1	-6.1
> O=C(NCc1nc2ccccc2n1CCCOc1ccccc1Cl)c1ccco1
 : -2.0	5.7
> NC(=O)c1cc2c(s1)CCN(Cc1cc3n(n1)CCCNC3)C2
 : 16.4	21.3
> Oc1cccc(C2CN(c3nc4cc(C(F)(F)F)ccc4s3)CCO2)c1 (stereo not drawn)
 : 11.6	8.3
> Cc1cccc2nc(C(=O)N3CCC4(CCNCC4)CC3)cn12
 : 6.9	4.7
> Clc1ccc(-n2ncc3c(N4CCc5ccccc54)ncnc32)cc1
 : 15.6	3.9
> CCCc1nc(C(=O)N2CCN(C)C3(CCN(C)CC3)C2)cs1
 : 1.9	-7.9
> Cc1ccc(OCC2c3ccsc3CCN2C(=O)CN(Cc2ccco2)C(=O)c2cccc(Br)c2)cc1 (stereo not drawn)
 : 2.6	8.4
> O=C(CCC1CCN(Cc2ccncc2)CC1)Nc1ccc2c(c1)OCCO2
 : 3.7	4.2
> CCOC(=O)c1sc(N)c(C(=O)OC)c1C
 : 0.4	-1.5

(more compounds)
Results follow in this order: NPYLR7 ag	NPYLR7 ag max-min
> CCOC(=O)C1=C(C)NC(C)=C(C(=O)OCC)C1c1ccc(OC)c(OC)c1
 : -14.6	-21.3
> CCN(Cc1cccs1)C(=O)/C=C/c1cc(OC)ccc1OC
 : 8.2	8.2
> O=C1OC(c2ccccc2)=NC1=Cc1cccc(F)c1
 : 1.4	7.5
> COc1c(C)cc(C(=O)N2CCC(n3c(C)nc4ccc(C)cc43)CC2)cc1C
 : -7.9	-12.4
> CCOC(=O)C1=C(COc2ccc(F)c(Cl)c2)NC(=O)NC1CC (stereo not drawn)
 : 19.3	7.8
> CC(C)COc1nc(-c2ccc(Cl)c(Cl)c2)n(-c2cccc(NC(=O)c3ccc([N+](=O)[O-])cc3)c2)n1
 : 10.6	9.4
> O=C(CN1CCOC1=O)NC1CCCc2nc(-c3ccccc3)ncc21 (stereo not drawn)
 : -1.2	-4.6
> C/C=C/COC(=O)C1=C(C)NC(=O)NC1c1ccccc1OCCCC (stereo not drawn)
 : -3.3	-7.5
> O=c1[nH]c(=S)[nH]c(O)c1C=NC1C=CS(=O)(=O)C1 (stereo not drawn)
 : 1.5	40.8
> Cc1cc2nc(C(=O)N3CCCN(C)C4(CCN(C)CC4)C3)cc(C)n2n1
 : 8.8	2.4
> CC1CN(CCNC(=O)c2cncnc2C(C)C)CC(C)O1 (stereo not drawn)
 : 1.7	0.9
> COc1nn(C)cc1C(=O)NCc1cc(-c2ccc3c(c2)OC(C)C3)on1 (stereo not drawn)
 : -2.5	-3.5
> Cc1ccc([N+](=O)[O-])cc1NC(=O)C(C)Sc1nnc(C)n1CC1CCCO1 (stereo not drawn)
 : 0.3	0.0
> Cc1nn(CN2CCN(S(=O)(=O)c3ccc4c(c3)OCCCO4)CC2)c(=S)s1
 : 12.3	17.8
> COc1cccc(-c2cc(CNC(=O)C3CC3)no2)c1
 : 3.4	1.3
> Cc1c(Br)cccc1NC(=O)C1(C)CCN1Cc1ccc(OC(F)(F)F)cc1 (stereo not drawn)
 : 0.9	-5.1
> CC(=O)c1ccccc1OCCN1CCC(C(N)=O)CC1
 : 0.2	-1.6
> CCOC(=O)N(C)c1c(CC)nc2c(OCCOc3ccccc3)cccn12
 : -14.8	-20.9
> COc1ccc(-c2noc(CN(C)Cc3n[nH]c4c3CCCCC4)n2)c(OC)c1OC
 : 3.2	-0.4
> Cc1cccc(-n2c(SCc3nc(C(=O)NCCCN4CCOCC4)cs3)nnc2-c2cccs2)c1
 : 17.1	17.0

The listing continues.
Results follow in this order: NPYLR7 ag	NPYLR7 ag max-min
> CCOC(=O)N1CCc2c(sc(NC(=O)/C=C/c3ccc([N+](=O)[O-])cc3)c2C(N)=O)C1
 : 1.9	-1.9
> Cc1ccc(-n2c(SCc3ccc(C(=O)Nc4ccc5c(c4)OCO5)cc3)nnc2-c2cccnc2)cc1
 : 5.0	11.2
> CCOCCN1CCC=C(CN2CCCC(NC(C)=O)C2)C1 (stereo not drawn)
 : -1.3	-5.5
> C[C@@]12CO[C@H](c3ccccc3)C[C@@H]1C[C@@H](N1CCN(Cc3ccccn3)CC1)C2
 : 2.2	12.9

Compound activity deposited in PubChem BioAssay by Fisher Drug Discovery Resource Center.

The list is partial. The share of hits here may be higher or lower than overall.
